Assay outcomes (PubChem BioAssay)
D2 PAM: potentiates the human D2 dopamine receptor allosterically | P14416 | DiscoveRx D2 beta-arrestin cells, luminescence, 90 min; 100% = 57 uM dopamine signal | 360,000 tested, 0.23% active | potentiation, % (test concentration not listed); active = potentiation of 50% or more; inconclusive = 30% to 50%; inactive = 30% or less;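 further: compound concentration not given in the record; tested on top of an EC20 dose of dopamine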
Target sequence (P14416 whole entry, looked up): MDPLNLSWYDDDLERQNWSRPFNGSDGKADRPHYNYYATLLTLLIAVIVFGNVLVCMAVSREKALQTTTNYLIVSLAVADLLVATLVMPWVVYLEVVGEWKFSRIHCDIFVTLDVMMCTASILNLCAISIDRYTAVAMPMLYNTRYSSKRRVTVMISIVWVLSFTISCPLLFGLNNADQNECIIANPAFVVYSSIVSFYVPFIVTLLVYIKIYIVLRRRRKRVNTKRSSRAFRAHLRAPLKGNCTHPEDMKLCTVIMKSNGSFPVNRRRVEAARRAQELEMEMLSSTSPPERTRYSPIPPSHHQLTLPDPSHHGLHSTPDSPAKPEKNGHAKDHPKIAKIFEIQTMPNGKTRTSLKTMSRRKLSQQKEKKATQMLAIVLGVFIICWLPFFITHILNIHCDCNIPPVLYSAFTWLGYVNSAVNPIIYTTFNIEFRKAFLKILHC
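PathHunter D2 cells, attached overnight at 37 deg C, received compound in DMSO plus dopamine at EC20 (50 nM final) for 90 min at 37 deg C. Beta-arrestin recruitment was read as luminescence after 1 h with detection reagent at ambient temperature.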
ClpP mod: qHTS Assay for Activators of ClpP. ATP-dependent Clp protease proteolytic subunit (Bacillus subtilis (strain 168)), P80244. purified B. subtilis ClpP, FRET peptide cleavage, 20 min. Potency, µM (titrated, usually from 57.5 µM), for the others: at the top dose activity change, negative = active. 340,000 tested, 1.9% active; active = well fitted falling curve with a large enough effect; inconclusive = small, poorly fitted or top-dose-only effect; inactive = no such curve, though single readings can be large or run the other way; further: potency means the concentration at half of the fitted maximal effect; the source files actives as falling curves though it sought activators and does not explain the sign; nearly all actives have a fitted effect of over 65% in size; many hits overshoot -100%
Target sequence (P80244 whole entry, looked up): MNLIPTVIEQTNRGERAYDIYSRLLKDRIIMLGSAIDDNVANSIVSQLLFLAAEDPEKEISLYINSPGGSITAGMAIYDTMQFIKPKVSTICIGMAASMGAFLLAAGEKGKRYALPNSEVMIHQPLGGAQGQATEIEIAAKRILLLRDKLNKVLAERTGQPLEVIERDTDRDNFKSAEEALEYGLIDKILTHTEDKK
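ClpP 10 microg/mL final, pH 8 Tris/KCl buffer with BSA, glycerol, Tween-20; compound pinned in; FRET-FV substrate; RT 20 min; Ex320/Em430; ΔFRET vs ADEP 5.8 microM, DMSO, no enzyme.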
gsp ag: agonists of gsp mutant (McCune-Albright syndrome); gsp mutant cells, cAMP HTRF, 30 min; control for the full effect not named in the record; Potency, µM (titrated, usually from 76.9 µM), for inactives: at the highest dose activation (cAMP increase), usual class: activators; 340,000 tested, 0.13% active; AID 624287; active = well fitted activation curve with a large enough effect; inconclusive = small, poorly fitted or top-dose-only effect, or another doubt; inactive = no such curve, though single readings can be large or run the other way; cell line not stated here;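 further: phosphodiesterase inhibitor Ro 20-1724 added with compounds to block cAMP breakdown; potency means the concentration at half of the fitted maximal effect; nearly all actives have a fitted effect of over 60% in size; about a fifth of the inactives were tested at one dose only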
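Cells stably selected in G418 were plated at 2000/well, grown 16-24 hr, then given compounds in DMSO with the PDE inhibitor […] (300 uM solution added) for 30 min at 37C; cAMP was read by HTRF.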
Menin MLL FP FL: displaces fluorescein MLL peptide from human menin | Fluorescence polarization, fluorescein-MLL peptide displacement from menin | 290,000 tested, under 10 active | FP activity change, % at 61.4 µM; inconclusive = falling polarisation curve, or a change in total fluorescence; inactive = total fluorescence flat and polarisation flat or rising; no compound was filed as active; the % refers to the polarisation; negative = inhibition;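 further: % of control where 0% means no effect; inhibitors lower the polarisation; unlabelled MLL peptide was the positive control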
TRPV1 PAM: enhances activation of the human vanilloid receptor TRPV1. Q8NER1. potentiation, % at 8.33 µM. 320,000 tested, 0.02% active. TRPV1-expressing cells, Fluo-8 calcium influx, capsaicin EC20 potentiation; host cell line not named in the record; control for the full effect not named in the record; active means potentiation above 80%; inconclusive means 30% to 80%; inactive means below 30%; further: 0% is about no effect
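Fluo-8 calcium influx in TRPV1-expressing cells, kinetic read (ex 480/em 520 nm). Compound added and read 3 min for agonist activity, followed by capsaicin at EC20 final and 2 min further read for enhancement.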
gsp antagonist: antagonizes gsp, the McCune-Albright syndrome mutation; gsp-mutant cells, cAMP HTRF, 30 min; control for the full effect not named in the record; Potency, µM (series often up to 76.9 µM), for the others: at the highest dose activity change, negative = inhibition, actives largely listed as inhibitors; 340,000 tested, 0.4% active; AID 624288; active = falling curve of any shape with a large fitted effect; inconclusive = falling curve, mostly with a smaller effect; inactive = flat or rising curve; cell line not stated here;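 further: intracellular cAMP measured with PDE inhibitor Ro 20-1724 present during compound exposure; potency means the concentration at half of the fitted maximal effect; on the % scale 0 is the no-effect control and ±100 the full control effect; nearly all actives have a fitted effect of over 65% in size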
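Cells in G418 medium, seeded 16-24 h, 37C; buffer exchange to DPBS + 1 mM CaCl2, 0.5 mM MgCl2, 0.05% BSA; cpds in DMSO + […] (300 uM stock), 30 min 37C; HTRF cAMP detection.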
Sfp PPTase inh: blocks B. subtilis Sfp PPTase activity; 310,000 tested, 3.5% active; AID 1490; Potency, µM, inactives show max response, negative = inhibition, usual class: inhibitors; Q9F4F7; Biochemical Sfp PPTase activity, qHTS; active means well fitted inhibition curve with a large enough effect; inconclusive means small, poorly fitted or top-dose-only effect, or another doubt; inactive means no such curve, though single readings can be large or run the other way;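 further: the enzyme is Sfp with the accession as filed and its product quenches rhodamine fluorescence; potency means the concentration at half of the fitted maximal effect; 0% = enzyme reaction without inhibitor and -100% = no enzyme wells; top concentration of the series not given in the record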
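Fluorescence-quenching assay: 15 nM Sfp-PPTase preincubated 15 min at room temperature with compound, then 5 uM rhodamine-CoA and 12.5 uM BHQ-2-labelled YbbR peptide added. Fluorescence (ex 525/em 598 nm) read at start and after 30 min; difference gives rate.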
* = called active by the depositor; ? = inconclusive; / = not tested or not shown; & = joins results of further samples; [ ] = another dose, or the depositor's remark.

Fields: D2 PAM, ClpP mod, gsp ag, Menin MLL FP FL, TRPV1 PAM, gsp antagonist, Sfp PPTase inh
(1) O=C(c1cccs1)N1CCN(CCc2ccccc2)CC1
→ -14, 4.0%, 9%, -0.5, -11, 1%, 10%
(2) CCc1c(C)nc2ncnn2c1NCCc1ccc(OC)cc1
→ 14, -4.1%, 5%, 5.1, 5, ?, 9%
(3) COCCNC(=O)CNS(=O)(=O)c1ccc2nc(C)sc2c1
→ 4, -2.6%, -38%[inhibitor], 1.3, 20, 7%, 9%
(4) Cc1ccc(/C=N/n2c(-c3ccccn3)n[nH]c2=S)o1
→ 0, -1.1%, 17%, 0.3, 15, -12%, 28µM*
(5) CCOc1ccc(C(=O)Nc2nc3ccccc3[nH]2)cc1OCC
→ -15, /, 14%[15.4 µM], 1.4, 21, -47%, ?
(6) CC(=O)c1ccc(OCC(=O)N(C2CCCCC2)C2CCS(=O)(=O)C2)cc1 (stereo unspecified)
→ 17, 0.1%, 4%, /, 2, -14%, /
(7) Cc1nn(C)c(Cl)c1CN1CCN(C2CCCCC2)C(CCO)C1 (stereo unspecified)
→ -9, -0.9%, 1%, -2.5, -10, 1%, -1%
(8) Cc1cnc(NC(=O)C2COc3ccccc3O2)s1 (stereo unspecified)
→ -12, -9.6%, 5%, 5.5, 12, 5%, 5%
(9) Cc1c(NC(=O)CC(C)C)c(=O)n(-c2ccccc2)n1C
→ -2, 1.3%, 6%[15.4 µM], 0.1, 20, 21%, 23%
(10) Cc1cc2nccc(-c3ccc(F)cc3)n2n1
→ -2, 0.1%, 15%, -2.8, 3, 0%, 10%
(11) COc1cc(/C=N/NC(=O)c2ccc3c(c2)OCCO3)cc(Br)c1O
→ -2, -0.8%, ?, 3.0, -32, -14%, 10%
(12) COc1ccc(N2CCCn3c2nc2c3c(=O)n(Cc3ccc(F)cc3)c(=O)n2C)c(OC)c1
→ -3, 99%, 27%, -0.1, ?, -1%, 5%
(13) COC(=O)C/C=C/N(Cc1ccccc1OC)S(=O)(=O)CCl
→ -1, -0.6%, /, /, /, 1%, /
(14) COC(=O)[C@@]12CCCN1[C@H](c1ccc(-c3ccccc3)cc1)[C@H]1C(=O)N(C)C(=O)[C@H]12
→ -14, -3.6%, -9%, /, 14, -2%, /
(15) COc1ccccc1Nc1nnc(SCC(=O)c2c(N)n(C3CC3)c(=O)[nH]c2=O)s1
→ 12, /, -27%, /, /, 4%, /
(16) Cc1ccc2c(c1)N(C(=O)CCC(=O)NCc1ccccc1)CC(C)O2 (stereo unspecified)
→ -7, -3.4%, -61%[inhibitor], 2.0, 0, -4%, -1%
(17) O=C(NCc1nnc(SCC(=O)N2CCCCCC2)o1)c1ccco1
→ -30, 0.2%, 12%, -0.9, -6, -5%, -7%
(18) NC(=O)c1ccccc1NC(=O)Nc1cccc(Cl)c1Cl
→ -16, -18%, -11%[15.4 µM], 4.8, 1, 7%, 2%
(19) CN=c1scc(-c2ccc(Cl)cc2)n1C
→ -18, -2.5%, -5%, 8.9, -1, 5%, 12%
(20) COc1ccccc1NC(=O)COC(=O)Cn1cnc2c1c(=O)n(C)c(=O)n2C
→ -7, 1.5%, ?, /, /, 21%, /
(21) COc1ccc(C2C(C(C)=O)=C(O)C(=O)N2c2ccc(Br)cn2)cc1 (stereo unspecified)
→ -9, -1.5%, ?, 4.0, 0, 5%, -4%
(22) CN1CCN(Cc2c(C#N)c3ccccc3n2C)CC1
→ -4, -2.4%, 3%, 3.2, 2, -3%, 14%
(23) CCOC(=O)c1c(NC(=O)CSc2nnc(-c3c[nH]c4ccccc34)n2C)sc2c1CCCC2
→ -2, -3.7%, -23%, 1.9, 9, ?, 2%
(24) CCOC(=O)c1cc2c(C)n(-c3ccc(OCC)cc3)c(C)c2ccc1=O
→ -19, -1.8%, 21%, 10, -10, ?, 79µM*
(25) COc1ccc(S(=O)(=O)Nc2ccccc2C(=O)OC2CCCN(C)C2)cc1OC (stereo unspecified)
→ -20, -4.2%, -2%, -6.5, -1, 9%, 4%
(26) O=C(COc1coc(CN2CCN(c3ccc(F)cc3)CC2)cc1=O)Nc1ccccc1
→ -30, -18%, -4%[15.4 µM], /, 13, 1%, /
(27) CC(=O)c1ccc(NC(=O)c2cc(-c3cccs3)on2)cc1
→ -1, /, 12%, 1.0, -2, -9%, 1%
(28) Cc1ccccc1NC(=O)CSc1n[nH]c(-c2ccccn2)n1
→ -9, -2.6%, 28%, 3.2, 8, 3%, ?
(29) Cn1c2ccccc2c2nn(-c3ccccc3)c(=O)cc21
→ -3, -0.9%, 15%, 4.1, -2, 10%, -13%
(30) CC(C)OCCCN1C(=O)c2[nH]nc(-c3ccccc3O)c2C1c1cccc(Cl)c1 (stereo unspecified)
→ 19, -0.2%, -7%, 0.5, -7, ?, -14%
(31) COc1ccc(N2CCN(C(=O)CSc3nnc(NC(=O)C4CCC4)s3)CC2)cc1
→ 0, /, -2%[15.4 µM], 5.8, 9, 5%, 17%
(32) CC(c1ccccc1)N1CCN(C(=O)CCl)CC1 (stereo unspecified)
→ -11, 1.5%, -36%[inhibitor], -2.9, -7, 12%, 12%
(33) Cc1ccc(N2CC(C(=O)N3CCN(Cc4ccc5c(c4)OCO5)CC3)CC2=O)cc1 (stereo unspecified)
→ -7, 2.4%, 6%[15.4 µM], 3.5, 0, -13%, 26%
(34) O=C(c1ccco1)N1CCN(C(c2ccccc2)c2nnnn2C2CCCC2)CC1 (stereo unspecified)
→ -3, -0.6%, -11%, 6.3, -6, -1%, -22%
(35) O=C(OCc1cccc(C(F)(F)F)c1)c1ccc[nH]c1=O
→ -4, /, 6%, -5.0, ?, 1%, -8%
(36) N#CCCn1cc(C(=O)N2CCCCC2)c(-c2ccc([N+](=O)[O-])cc2)n1
→ -30, -10%, -4%[15.4 µM], -4.6, 16, -2%, 9%
(37) COc1cccc(C2=NN(C(=O)C3CC3)C(O)(C(F)(F)F)C2)c1 (stereo unspecified)
→ -9, 3.8%, -53%[inhibitor], /, /, /, /
(38) CC(=O)N1CCN(c2ccc(NS(=O)(=O)c3ccc(C)cc3)cc2)CC1
→ 2, /, -27%, 2.4, 2, -2%, 8%
(39) Cc1ccc(-c2nc(CS(=O)(=O)CC(=O)NCc3ccc4c(c3)OCO4)c(C)o2)cc1
→ -5, 12%, -12%, /, 4, -9%, 13%
(40) NS(=O)(=O)c1ccc(S(=O)(=O)N2CCCC(c3ccccc3)C2)cc1 (stereo unspecified)
→ -9, -1.4%, -7%, /, /, /, /
(41) CCOc1ccc(C(=O)NC(C)C2COc3ccccc3O2)cc1 (stereo unspecified)
→ -5, /, 0%[15.4 µM], -1.3, 13, 5%, 17%
(42) Cc1ccc(CCNS(=O)(=O)c2ccc(C)cc2)cc1
→ 4, -2.5%, -41%[inhibitor], 2.5, -6, -15%, 3%
(43) COc1cccc(C(=O)COc2ccc(NC(=O)c3ccccc3)cc2)c1
→ 9, -1.3%, 6%, 0.9, -3, -17%, 17%
(44) COc1ccc(CCN(C)CCCC(C#N)(c2cc(OC)c(OC)c(OC)c2)C(C)C)cc1OC (stereo unspecified)
→ -25, 1.1%, /, -0.6&1.4&-0.1, -12, 5%, 18%&1%&18%
(45) S=C(Nc1ccc2[nH]ccc2c1)NC1CCCCC1
→ -13, -0.3%, -17%, 4.4, -8, -7%, 16%
(46) CCn1nc(NS(=O)(=O)c2ccccc2)c2cc3cccc(C)c3nc21
→ -12, -1.1%, 1%, 4.9, 2, -13%, 20%
(47) N#C/C(=C\c1ccc(-c2nc3ccccc3s2)o1)C(N)=O
→ -3, 0.0%, -4%[15.4 µM], -1.1, 2, -3%, 10%
(48) C/C(Cn1nnc([N+](=O)[O-])n1)=N\NC(=O)c1cccc(Cl)c1
→ ?, 0.4%, -45%[inhibitor], 0.7, -11, 9%, 10%
(49) O=C(CSc1nnc(NC(=O)c2c(F)cccc2F)s1)NC1CC1
→ 2, /, 4%[15.4 µM], 2.0, 3, -7%, 7%
(50) CCCC(=O)N1CCN(c2ccc(NC(=O)c3cccs3)cc2Cl)CC1
→ -4, /, 30%, 4.5, -3, -1%, -8%
(51) O=C1c2oc3ccc(Br)cc3c(=O)c2C(c2cccc(F)c2)N1CCO (stereo unspecified)
→ -23, -2.0%, -11%, 7.9, 0, -3%, 10%
(52) COc1cc2c(cc1OC)CN(Cc1ccc(C)s1)CC2
→ -43, -1.0%, -83%[inhibitor], -1.9, -8, 5%, -21%
(53) CC(=O)c1cccc(NC(=S)NC(=O)c2cccc(C)c2)c1
→ -11, 16µM*, -24%, 2.8, 0, -16%, -4%
(54) CCOc1c(Br)cc(C(=O)NCCCn2ccnc2)cc1OC
→ -11, 0.5%, ?, -1.5, -15, 2%, 14%
(55) Nc1ccc2nn(-c3ccc(F)cc3)nc2c1
→ -32, 4.1%, ?, -0.8, -5, -3%, 2%
(56) Cc1nc2sc(C#N)c(N)c2c2c1CCCC2
→ 7, -12%, 21%, -1.8, -3, 2%, 15%
(57) Cc1nc2c(-c3ccccc3)c(C)nn2c(C)c1CCC(=O)N1CCOCC1
→ -4, 0.9%, -16%, 1.6, ?, 4%, -4%
(58) O=C1OC(C(=O)Nc2ccccc2)Cc2ccccc21 (stereo unspecified)
→ -3, 2.1%, -3%[15.4 µM], -1.4, 1, -6%, 15%
(59) COc1ccc(OC)c(NS(=O)(=O)c2ccc(-n3cccn3)cc2)c1
→ -11, -0.3%&-1.7%, -27%, /, /, /, /
(60) CCn1nc(C(=O)Nc2ccccc2C)c(Cl)c1Cl
→ -4, 0.4%, -16%, 1.7, /, -6%, 10%
(61) Cn1c(SCCN2CCOCC2)nc2sc3c(c2c1=O)CCCC3
→ -10, -2.5%, ?, -2.1, 8, 11%, -6%
(62) O=C(OCCCCN1C(=O)c2ccccc2C1=O)c1n[nH]c2ccccc12
→ -3, -5.1%, 0%, 3.5, -4, 7%, -21%
(63) S=c1[nH]ccn1Cc1ccccc1
→ -28, -0.2%, 2%[15.4 µM], -2.6, -2, 14%, -26%
